Rango release inh – prevents RanGTP from dissociating the Rango-importin beta complex; O95149+P62826; actives 0.071% (n = 340,000); Biochemical FRET Rango-importin beta, RanGTP-induced dissociation; Potency, µM (doses to about 46.1 µM), without a hit: top-dose activity change, negative = inhibition; active means falling FRET ratio curve, often poorly fitted, with flat reads before Ran was added; inconclusive means other falling curves, or compound fluorescence or quenching; inactive means flat or rising ratio curve;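 note: potency is the fitted concentration of half-maximal effect; % of control where 0% means no effect; nearly all actives have a fitted effect of over 45% in size; -100% = wells without RanGTP and RCC1; the record marks most hits as doubtful in a second field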
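Compounds sat 5 min at room temperature with 0.1 uM Rango biosensor plus 0.25 uM importin beta, then FRET pre-read. RanGTP-RCC1 (0.6 uM Ran, 2mM GTP, 0.2 uM RCC1) added for 45 min, and the CFP/YFP post-read measured blocked complex dissociation.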
miR-21 FLuc – raises the signal of a miR-21 reporter; AID 2288; Potency, µM (titrated, usually from 38.3 µM), inactives show at the highest dose reporter change, positive = more light; 340,000 tested, under 10 active; HeLa miR-21 FLuc reporter, luciferase, 48 h; active = well fitted rising curve with a large enough effect; inconclusive = small, poorly fitted or top-dose-only effect; inactive = no such curve, though single readings can be large or run the other way;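 note: % of control where 0% means no effect; miR-21 action dims this reporter so a rising signal means less miR-21 action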
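HeLa cells endogenously expressing miR-21, stably carrying CMV-driven firefly luciferase with a downstream miR-21 binding site, 2000 cells/well. Titrations up to approximately 40 uM, 48 hours; luciferase luminescence read.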
GLA inh pH 4.5 – alpha-galactosidase A (human) inhibition, pH 4.5. activity change, negative = inhibition, % at 105 µM. purified enzyme, 4-MU-alpha-Gal fluorescence, pH 4.5. P06280. 230,000 tested, under 10 active; inconclusive = small, poorly fitted or top-dose-only inhibition, or a rising curve; inactive = flat fitted curve, though single readings scatter; no compound was filed as active;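 note: 0% = full activity with enzyme and -100% = basal without enzyme; dose as in the result columns while the protocol names 77 µM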
Rango complex inh – Rango-importin beta binding inhibition; Rango CFP/YFP FRET sensor + importin beta, 45 min; Potency, µM (series often up to 92.2 µM), without a hit: at the highest dose inhibition of complex formation; AID 540263; actives 0.031% (n = 340,000); Q14974; active = rising FRET ratio curve, often small or poorly fitted; inconclusive = mostly compound fluorescence or quenching in the first reads; inactive = flat curves in all reads;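 note: potency is the fitted concentration of half-maximal effect; 0% = DMSO wells and 100% = buffer wells lacking importin beta; nearly all actives have a fitted effect of over 15% in size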
Target sequence (Q14974 whole entry, looked up): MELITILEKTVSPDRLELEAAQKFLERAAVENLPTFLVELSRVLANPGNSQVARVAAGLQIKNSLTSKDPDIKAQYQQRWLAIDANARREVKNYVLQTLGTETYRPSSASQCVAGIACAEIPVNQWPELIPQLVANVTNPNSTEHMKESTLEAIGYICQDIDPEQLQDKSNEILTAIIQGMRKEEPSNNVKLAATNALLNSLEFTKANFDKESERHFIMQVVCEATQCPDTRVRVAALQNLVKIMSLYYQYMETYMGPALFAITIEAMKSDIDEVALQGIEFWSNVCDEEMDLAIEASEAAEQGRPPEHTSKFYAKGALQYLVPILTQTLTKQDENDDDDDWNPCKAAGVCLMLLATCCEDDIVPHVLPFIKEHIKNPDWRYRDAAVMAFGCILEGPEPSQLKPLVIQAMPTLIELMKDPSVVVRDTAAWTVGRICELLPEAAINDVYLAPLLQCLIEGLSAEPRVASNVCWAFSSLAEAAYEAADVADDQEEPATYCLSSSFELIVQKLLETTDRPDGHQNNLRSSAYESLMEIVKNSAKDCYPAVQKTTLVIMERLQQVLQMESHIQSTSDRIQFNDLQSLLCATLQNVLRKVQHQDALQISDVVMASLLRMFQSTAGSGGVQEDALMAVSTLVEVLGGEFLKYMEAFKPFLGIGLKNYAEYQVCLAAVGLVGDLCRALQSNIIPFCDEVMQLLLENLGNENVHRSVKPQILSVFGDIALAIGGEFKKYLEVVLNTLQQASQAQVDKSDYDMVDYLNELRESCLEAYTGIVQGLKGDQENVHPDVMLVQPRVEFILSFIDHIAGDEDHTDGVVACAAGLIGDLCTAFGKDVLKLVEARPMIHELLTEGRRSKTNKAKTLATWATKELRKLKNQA
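FRET biosensor (snurportin 1 IBB flanked by EYFP and cerulean), 50 nM, with compound 5 min, then 0.125 microM importin beta in PBS, 1 mM DTT, 0.02% Tween-20, 0.1% BSA. CFP/YFP ratio read after 45 min at room temperature; pre-read flags interference.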
Numbers without * were called inactive; ? = inconclusive; . = not tested or not shown; & = joins results of further samples. An excerpt; the hit share may differ from the screen's.

Rango release inh	miR-21 FLuc	GLA inh pH 4.5	Rango complex inh	canonical_smiles
0.3%	.	-6.5	-1.2%	Cc1cc(=O)oc2c(O)c(O)ccc12
-12.4%	3.9%	.	2.3%	CCC(C)(C)NC(=O)C(c1ccccc1Cl)N(C(=O)CCC(=O)Nc1cc(C)on1)C(C)(C)C (centres undefined)
2.6%	-16.1%	-4.2	0.1%	Cn1c(=O)oc2cc(C(=O)c3ccccc3)ccc21
-11.1%	0.5%	.	5.1%	Cc1onc(-c2ccccc2)c1C(=O)N/N=C/c1ccc(Br)cc1
-1.8%	10.2%	6.0	2.9%	O=C(CCCl)N(Cc1nc2ccccc2c(=O)[nH]1)Cc1cccs1
0.3%	1.1%	-3.1	1.6%	CCCCC(=O)OCC(=O)Nc1cccc(S(=O)(=O)NC2=NCCCCC2)c1
-13.2%	-47.3%	11.2	0.3%	CCOC(=O)c1c(C)[nH]c(C(=O)/C(C#N)=C/c2ccc(OCC)cc2)c1C
1.9%	0.1%	-4.2	-4.0%	O=c1c2c(n3nnnc3n1-c1ccccc1)-c1ccccc1CC21CCCC1
0.7%	-9.5%	-4.4	-3.7%	CC(Oc1ccc(Cl)cc1Cl)C(=O)NCCCCc1ccccc1 (centres undefined)
-8.7%	1.5%	2.4	-0.4%	O=C1CC(=C(c2ccccc2)c2ccccc2)C(=O)N1CCN1CCN(c2cccc(Cl)c2)CC1
2.7%	0.0%	2.7	-0.2%	Cc1onc(-c2c(F)cccc2Cl)c1C(=O)N1CCN(c2ncccn2)CC1
4.1%	3.0%	-8.8	3.2%	CN=C1c2cc3c(Br)c(OC)ccc3n2CCN1C
0.1%	6.5%	0.9	-1.1%	Cc1ccc2c(c1)N(CC(=O)OC(CC(C)C)C(=O)NC1CCCC1)C(=O)CO2 (centres undefined)
12.2%	-0.2%	0.5	-2.4%	O=C(O)c1cccc(NC(=O)C2CCCO2)c1 (centres undefined)
-1.1%	.	.	-2.5%	Cc1ccc([C@H]2C(C(=O)O)=C[C@@H](CC3CCCC3)N2S(=O)(=O)c2ccc(C)cc2)cc1
0.4%	-24.8%	.	-0.4%	Cc1ccc2[nH]c3c(=O)[nH]ncc3c2c1
0.2%	-11.8%	-6.8	-0.7%	O=C(CSc1ccc(-c2ccco2)nn1)c1cccc([N+](=O)[O-])c1
0.7%	0.0%	.	-0.5%	O=C(COc1ccc(S(=O)(=O)N2CCOCC2)cc1Cl)NCCCn1ccnc1
1.3%	1.1%	6.9	-2.6%	O=C(c1ccc2c(c1)OCCO2)C1CCN(S(=O)(=O)c2ccccc2F)CC1
2.6%	1.1%	.	-1.8%	CN1CCCN(S(=O)(=O)c2cccc(C#N)c2)CC1
-1.1%	-8.4%	6.9	?	COc1ccc(C2=NN(C(=O)CCCC(=O)O)C(c3cn(-c4ccccc4)nc3-c3ccccc3)C2)cc1 (centres undefined)
11.8%	-1.5%	.	-0.2%	O=C(O)c1cc(NC(=O)c2ccco2)cc(NC(=O)c2ccco2)c1
2.4%	.	.	0.1%	OCCN1CCN(C2CCC(c3ccc(F)cc3)c3ccc(F)cc32)CC1 (centres undefined)
1.7%	-1.0%	2.0	-1.0%	Cc1cc(S(=O)(=O)N2CC(=O)N(CCc3ccccc3)C(=O)C2)ccc1F
12.9%	-14.6%	-14.3	0.0%	C=C(C)COc1ccc(-c2nc(N)ncc2Oc2ccc(OC)cc2)c(O)c1
5.5%	.	.	-0.6%	O=C1CCCC/C=C\C[C@H](CC(=O)N(CCO)Cc2ccccc2)C(=O)N2CCC[C@@H]2CO1
-10.3%	-0.8%	6.5	0.6%	COc1ccc(NC(=O)N2CCCC2C(=O)NCc2ccc(C)cc2)cc1 (centres undefined)
16.7%	7.7%	.	-0.9%	COc1ccc(S(=O)(=O)N2CCN(C(=O)c3ccc([N+](=O)[O-])o3)CC2)cc1
20.1%	-4.3%	-7.2	-8.1%	COc1ccc(OC)c(C(=O)c2nc3c(n2O)CCCCC3)c1
14.8%	-2.0%	.	-2.3%	Cc1cc(Br)c(NC(=O)CCNC(=O)OCc2ccccc2)cc1C
6.1%	-0.2%&0.1%	-5.1	2.3%	COC(=O)c1cccc(CN2C(=O)SC(Nc3ccc(C)cc3)C2=O)c1 (centres undefined)
-7.0%	-17.8%	-9.7	5.0%	Cc1c(C(=O)NCc2ccccn2)sc2nc(-c3ccccc3)cn12
-11.2%	-4.7%	-4.4	0.1%	CCOc1ccc(-n2cnnn2)cc1S(=O)(=O)Nc1c(C)cccc1C
-2.2%	0.0%	.	-2.2%	COC(=O)CSc1nnc(NC(=O)CCc2ccccc2)s1
-5.0%	-0.7%	-15.0	1.1%	CCCCOC(=O)c1cccnc1
26.2%	-16.1%	4.2	-2.9%	CC1CCCCC1NC(=O)c1ccc(CSc2nc3ccncc3[nH]2)cc1 (centres undefined)
-13.2%	-6.9%	-8.1	-1.0%	O=C(NCCCN1CCCC1)Nc1cccc2ccccc12
19.3%	-5.1%	-6.2	0.9%	COc1ccc(-c2nnc(NC(=O)c3cccs3)s2)c(OC)c1
15.0%	-4.5%	3.2	-1.8%	Cn1c(SCC(=O)Nc2ccc3c(c2)OCCO3)nnc1-c1ccccn1
13.8%	15.6%	4.4	-1.6%	CCCOc1ccccc1C1CC(=O)NC2=C1C(=O)CCC2 (centres undefined)
18.8%	0.8%	0.3	1.0%	CCc1ccc(CNC(=O)C(=O)NCC2CCCO2)cc1 (centres undefined)
0.1%	4.1%	.	2.0%	O=C(c1cccc(Br)c1)N1CCN(S(=O)(=O)N2CCCCC2)CC1
-7.3%	?	-2.8	2.4%	O=C(CCCCn1c(=O)[nH]c2ccccc2c1=O)N1CCN(c2cccc(C(F)(F)F)c2)CC1
7.1%	-5.0%	.	5.1%	Cc1ccc(C)c(NC(=O)CCC(=O)NNC(=O)COc2cc(C)ccc2C)c1
-5.3%	-46.8%	-3.3	-0.2%	Cc1ccc(NC(=O)c2ccc(Oc3ncccn3)cc2)cc1

Ordered by SMILES length (highest first): part of the list above
Rango release inh	miR-21 FLuc	GLA inh pH 4.5	Rango complex inh	canonical_smiles
-13.2%	-47.3%	11.2	0.3%	CCOC(=O)c1c(C)[nH]c(C(=O)/C(C#N)=C/c2ccc(OCC)cc2)c1C
0.3%	1.1%	-3.1	1.6%	CCCCC(=O)OCC(=O)Nc1cccc(S(=O)(=O)NC2=NCCCCC2)c1
11.8%	-1.5%	.	-0.2%	O=C(O)c1cc(NC(=O)c2ccco2)cc(NC(=O)c2ccco2)c1
26.2%	-16.1%	4.2	-2.9%	CC1CCCCC1NC(=O)c1ccc(CSc2nc3ccncc3[nH]2)cc1 (centres undefined)
2.6%	-16.1%	-4.2	0.1%	Cn1c(=O)oc2cc(C(=O)c3ccccc3)ccc21
-5.0%	-0.7%	-15.0	1.1%	CCCCOC(=O)c1cccnc1

Next section:
Rango release inh	miR-21 FLuc	GLA inh pH 4.5	Rango complex inh	canonical_smiles
-1.1%	.	.	-3.3%	CCN(CC(=O)Nc1c(F)cccc1F)C(=O)CSCc1c(C)noc1C
-0.3%	2.5%	.	-5.6%	CCOC(=O)N1CCc2c(sc(NC(=O)CCS(=O)(=O)c3ccccc3)c2C(N)=O)C1
-16.2%	-2.1%	.	4.7%	O=C(c1ccccc1)N1CCN(Cc2ccc3c(c2)OCO3)CC1
0.4%	.	.	0.8%	COc1cccc(-c2sc3ccc(OC)cc3c2-c2ccc(OCCN3CCCC3)cc2)c1
20.9%	-3.0%	6.0	0.0%	Cc1ccccc1NC(=O)Oc1cccc(OC(=O)c2ccccc2)c1
19.4%	-9.9%	4.5	-0.7%	Cn1c2ccccc2c2ncn(CCCN3CCOCC3)c(=O)c21
4.0%	-1.3%	-14.4	-2.9%	CCSC1=NC(=O)/C(=C2/C=Cc3ccccc3N2CC)S1
-2.6%	0.4%	.	-4.2%	COc1ccc(N2CCN(C(CNC(C)=O)c3ccc4c(c3)OCO4)CC2)cc1 (centres undefined)
-15.0%	-0.3%	-4.4	0.0%	O=C(NCc1ccc(Cl)cc1Cl)C1CC(=O)N(Cc2ccccc2)C1 (centres undefined)
-14.2%	5.7%	-3.1	6.3%	COc1ccccc1OCCNC(=O)c1cc([N+](=O)[O-])cc([N+](=O)[O-])c1
12.4%	-7.6%	0.9	-1.0%	Cc1nc2sc3c(c2c(=O)[nH]1)CCC3
-7.3%	-8.7%	0.9	0.6%	Cc1cccc(N2C(=O)CC(N3CCN(c4ccccc4)CC3)C2=O)c1 (centres undefined)
-8.8%	-1.0%	8.8	?	COC(=O)c1cc(C(=O)c2cc(Cl)ccc2O)coc1=N
?	-2.6%	14.3	?	CC1(C)Cc2c(C#N)c(NCCc3ccccc3)nc(-c3ccco3)c2CO1
17.2%	-3.1%	4.9	-2.3%	Cc1cc(C)c(C#N)c(SCc2ccc(C#N)cc2)n1
-22.3%	-4.5%	-23.9	-3.4%	CC(C)c1ccc(NC(=O)C(c2ccc3c(c2)OCO3)N2CCN(C(=O)c3ccco3)CC2)cc1 (centres undefined)
4.5%	-32.8%	-6.0	0.1%	COc1ccc(N2Nc3n[nH]c(N)c3N2)cc1
-5.7%	-4.6%	5.0	-2.2%	NCCCC[C@H]1NC(=O)[C@H](CCC(=O)O)NC(=O)c2cc([N+](=O)[O-])cc(I)c2OCC[C@@H](C(N)=O)NC1=O
-17.3%	-0.3%	.	-6.3%	O=c1cc(-c2ccncc2)oc2c1ccc1ccccc12
-4.7%	.	.	0.2%	CCOC(=O)O[C@]1(C(=O)COC(=O)CC)CC[C@H]2[C@@H]3CCC4=CC(=O)C=C[C@]4(C)[C@H]3[C@@H](O)C[C@@]21C
8.6%	0.1%	0.6	-2.7%	COc1ccc(CCN2C(=O)c3ccncc3C2=O)cc1OC
8.7%	-1.7%&-3.5%	.	2.1%	CC(NC(=O)C1CCN(S(=O)(=O)c2ccccc2)CC1)c1ccccc1 (centres undefined)
1.5%	-12.1%	7.4	-0.6%	COc1ccc(Nc2ccc(C(=O)O)cc2[N+](=O)[O-])cc1
9.7%	.	.	-0.2%	O=C(CNC(=O)c1ccc(Cl)c([N+](=O)[O-])c1)OC1CCCCC1=O (centres undefined)
0.6%	-2.8%	.	-1.7%	COc1ccc(C(=O)N(C)C2CCCN(Cc3ccccc3F)C2)cc1OC (centres undefined)
-0.9%	.	.	-4.2%	CN1OC[C@@H]2CN(S(=O)(=O)c3ccccc3)[C@H](c3cccc(Br)c3)C[C@@H]21
-4.4%	1.9%	-7.0	-3.8%	O=C(O)CS(=O)(=O)c1ccc(C(F)(F)F)cn1
17.0%	.	.	1.1%	CN(C)N(C(=O)c1cc(-c2cccs2)nn1-c1ccccc1)C1CCS(=O)(=O)C1 (centres undefined)
1.7%	-4.0%	.	2.6%	CC(C(=O)NCc1ccccc1)N(Cc1ccccc1Cl)C(=O)c1snc(C(N)=O)c1N (centres undefined)
0.0%	-2.4%	.	-2.4%	Cc1ccc(NC(=O)C2C3C=CC4(O3)C2C(=O)N(CCCN2CCCC2)C4C(=O)NC2CCCCC2)cc1Cl (centres undefined)
-0.1%	2.8%	3.5	0.5%	CCc1cccc(C)c1NC(=S)N(CCCN1CCN(C)CC1)Cc1cccs1
-3.2%	1.4%	0.0	-0.6%	COC(=O)C1CCN(C(=O)c2cc3c(=O)n4cccc(C)c4nc3n2Cc2ccccc2)CC1
-0.8%	-6.6%	0.0	-5.7%	CC[C@H](C)[C@@H]1NC(=O)c2cc([N+](=O)[O-])cc(I)c2NCC[C@@H](C(N)=O)NC(=O)[C@H](CCCN=C(N)N)NC1=O
10.0%	-16.1%	.	-3.0%	CCOc1ccc(NCc2cccn2-c2nnc(N3CCC(C(=O)NCCCN4CCCCC4)CC3)s2)cc1
-4.4%	-11.9%	6.4	-0.9%	CCCS(=O)(=O)N1CCN(C(=O)CCC2CCCC2)CC1
4.6%	.	.	-2.9%	Cc1cnc(C(=O)OCc2cc(=O)n3c(C)cccc3n2)cn1
4.6%	-7.9%	-6.7	-0.5%	Cc1cc(C)c2c(=O)[nH]n(C(C)C)c2n1
-1.3%	18.7%	-3.8	-0.4%	Cn1c(Sc2ccc(Cl)cc2)c(C=O)c2ccccc21
